ClpP mod = qHTS Assay for Activators of ClpP; Potency, µM (titrated, usually from 57.5 µM), for the others: at the highest dose activity change, negative = active; ATP-dependent Clp protease proteolytic subunit (Bacillus subtilis (strain 168)), P80244; AID 651965, 2013; purified B. subtilis ClpP, FRET peptide cleavage, 20 min; 340,000 tested, 1.9% active; active = well fitted falling curve with a large enough effect; inconclusive = small, poorly fitted or top-dose-only effect; inactive = no such curve, though single readings can be large or run the other way; also: potency is read from the fitted curve at half-maximal effect; the source files actives as falling curves though it sought activators and does not explain the sign; nearly all actives have a fitted effect of over 65% in size; many hits overshoot -100%
Target sequence (P80244 whole entry, looked up): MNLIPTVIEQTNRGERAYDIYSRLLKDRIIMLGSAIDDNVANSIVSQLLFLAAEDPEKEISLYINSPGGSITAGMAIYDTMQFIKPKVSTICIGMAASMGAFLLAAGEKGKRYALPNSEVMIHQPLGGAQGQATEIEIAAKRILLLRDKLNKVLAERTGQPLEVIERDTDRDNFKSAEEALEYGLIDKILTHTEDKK
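FRET quenching reversal measured ClpP activation: 10 microg/mL B. subtilis ClpP at pH 8 with the FRET-FV decapeptide, read at 430 nm after 320 nm excitation. The 20-min minus 0-min signal was scaled between DMSO/no-enzyme wells and ADEP (5.8 microM final).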
D2 agonist = human D2 receptor agonism in beta-arrestin assay; P14416; DiscoveRx PathHunter D2 beta-arrestin, luminescence, 90 min; 100% = 57 uM dopamine signal; activation, % (concentration not given with the values); 360,000 tested, 0.084% active; AID 624465; in the data active = activation above about 40%; inconclusive = about 15% to 40%; inactive = below about 15%; also: compound concentration not given in the record; the text of the record calls up to 30% inactive
Target sequence (P14416 whole entry, looked up): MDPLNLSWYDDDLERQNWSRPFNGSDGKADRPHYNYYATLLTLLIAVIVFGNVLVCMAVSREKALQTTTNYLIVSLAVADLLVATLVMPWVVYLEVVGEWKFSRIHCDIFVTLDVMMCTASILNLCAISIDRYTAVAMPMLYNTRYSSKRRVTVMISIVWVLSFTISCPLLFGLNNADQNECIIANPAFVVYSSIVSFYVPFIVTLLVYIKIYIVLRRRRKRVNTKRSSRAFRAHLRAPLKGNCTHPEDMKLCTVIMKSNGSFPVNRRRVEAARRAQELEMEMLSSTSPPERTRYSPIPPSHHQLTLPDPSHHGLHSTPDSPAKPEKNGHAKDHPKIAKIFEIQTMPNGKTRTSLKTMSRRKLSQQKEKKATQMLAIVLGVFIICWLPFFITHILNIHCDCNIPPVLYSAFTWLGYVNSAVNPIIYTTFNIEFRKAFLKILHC
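Agonist mode: compounds alone added to overnight-plated D2 PathHunter cells for 90 min at 37 C, with 57 uM final dopamine (EC100) defining full response. Beta-arrestin recruitment detected by chemiluminescent reagent, read after 1 h at ambient temperature.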
gsp agonist = agonists of gsp mutant (McCune-Albright syndrome) | gsp mutant cells, cAMP HTRF, 30 min; control for the full effect not named in the record | Potency, µM (doses to about 76.9 µM), inactives show top-dose activation (cAMP increase), most hits filed as activators | 340,000 tested, 0.13% active; active = well fitted activation curve with a large enough effect; inconclusive = small, poorly fitted or top-dose-only effect, or another doubt; inactive = no such curve, though single readings can be large or run the other way; cell line not stated here;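 also: phosphodiesterase inhibitor Ro 20-1724 added with compounds to block cAMP breakdown; potency is read from the fitted curve at half-maximal effect; nearly all actives have a fitted effect of over 60% in size; about a fifth of the inactives were tested at one dose only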
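Cells stably selected in G418 were plated at 2000/well, grown 16-24 hr, then given compounds in DMSO with the PDE inhibitor […] (300 uM solution added) for 30 min at 37C; cAMP was read by HTRF.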
PINK1 expr mod = PINK1 expression modulation. PINK1 immunofluorescence, high-content cytometry, 24 h. Potency, µM (highest dose often 76.6 µM), for inactives: top-dose activation (PINK1 increase), most hits filed as activators. 410,000 tested, 0.2% active; active = well fitted activation curve with a large enough effect; inconclusive = small, poorly fitted or top-dose-only effect; inactive = flat fitted curve, though single readings scatter; cell line not stated here;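 also: potency is read from the fitted curve at half-maximal effect; % of control where 0% means no effect; nearly all actives have a fitted effect of over 65% in size; a mitochondrial uncoupler was the plate control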
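Decision-based qHTS: stable cells, 24 h exposure to five compound concentrations, CCCP as control. Fixed cells stained for PINK1 plus nuclear, mitochondrial and cell markers, cytometer read.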
gsp antag = gsp mutant antagonism. 340,000 tested, 0.4% active. Potency, µM (highest dose often 76.9 µM), for inactives: at the top dose activity change, negative = inhibition, usual class: inhibitors. gsp-mutant cells, cAMP HTRF, 30 min; control for the full effect not named in the record; active = falling curve of any shape with a large fitted effect; inconclusive = falling curve, mostly with a smaller effect; inactive = flat or rising curve; cell line not stated here;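 also: intracellular cAMP measured with PDE inhibitor Ro 20-1724 present during compound exposure; potency is read from the fitted curve at half-maximal effect; % is scaled to controls: 0 for no effect and ±100 for the full control effect; nearly all actives have a fitted effect of over 65% in size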
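HTRF cAMP measurement after 30 min RT detection following 30 min, 37C compound treatment alongside […] (added as 300 uM solution) in G418-selected cells seeded at 2000/well and grown 16–24 h.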
Menin-MLL FL inh = displaces fluorescein MLL peptide from human menin | Fluorescence polarization, fluorescein-MLL peptide displacement from menin | FP activity change, % at 61.4 µM | 290,000 tested, under 10 active; inconclusive = falling polarisation curve, or a change in total fluorescence; inactive = total fluorescence flat and polarisation flat or rising; no compound was filed as active; the % refers to the polarisation; negative = inhibition;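 also: % of control where 0% means no effect; inhibitors lower the polarisation; unlabelled MLL peptide was the positive control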
Sfp PPTase inh = blocks B. subtilis Sfp PPTase activity; Biochemical Sfp PPTase activity, qHTS; Potency, µM, for the others: max response, negative = inhibition, usual class: inhibitors; 310,000 tested, 3.5% active; AID 1490; active = well fitted inhibition curve with a large enough effect; inconclusive = small, poorly fitted or top-dose-only effect, or another doubt; inactive = no such curve, though single readings can be large or run the other way;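 also: the enzyme is Sfp with the accession as filed and its product quenches rhodamine fluorescence; potency is read from the fitted curve at half-maximal effect; 0% = enzyme reaction without inhibitor and -100% = no enzyme wells; top concentration of the series not given in the record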
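Step 1, compound plus 15 nM Sfp-PPTase, 15 min, room temperature. Step 2, add rhodamine-CoA (5 uM) and BHQ-2-YbbR (12.5 uM). Step 3, read 525/598 nm fluorescence at 0 and 30 min.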
* = called active by the depositor; ? = inconclusive; / = not tested or not shown; & = joins results of further samples; [ ] = remark or other dose. Compounds as they come; 5.1% or so of the library scored in one or more.

SMILES	ClpP mod	D2 agonist	gsp agonist	PINK1 expr mod	gsp antag	Menin-MLL FL inh	Sfp PPTase inh
O=C(COC(=O)C1=COCCO1)Nc1ccc2c(c1)OCO2	-0.2%	1.0	-3.0%	0.0%	10.1%	-0.4	-9.0%
Cc1ccsc1CCNC(=O)C1CCC(=O)N(CCc2cccc(F)c2)C1 (stereo unspecified)	0.3%	-4.8	22.3%	-0.7%	0.7%	/	-14.4%
CN(CC(=O)Nc1ccc(Cl)cc1)C(=O)c1cccc(S(=O)(=O)N(C)C)c1	-1.2%	-5.0	28.6%[15.4 µM]	0.2%	1.5%	-0.6	2.4%
Cc1cc(-n2c(C)cc(C(=O)COc3ccc(Cl)cc3C(N)=O)c2C)no1	-2.7%	-1.8	22.6%	?	0.1%	/	/
OCCC1CN(Cc2nc3ccccc3s2)CCN1C1CCCC1 (stereo unspecified)	-1.4%	-2.2	11.0%	0.1%	6.4%	4.3	-5.5%
COc1cccc(CN(C)CC(=O)Nc2ccccc2C(=O)Nc2ccccc2)c1OC	0.2%	2.5	4.5%[15.4 µM]	-0.9%	-39.8%	6.7	4.8%
CC(=O)Nc1ccccc1-c1nc2cc(C#N)c(C#N)cc2[nH]c1=O	-28.0%	-1.4	?	-0.8%	-0.6%	-1.0	10.7%
Cc1nn(C)c(N)c1-c1ccccc1	-0.2%	-5.6	-8.6%	3.5%	-9.5%	-1.7	12.3%
CCCNC(=O)C1(C)CCN(C(=O)c2cccnc2Oc2ccccc2)C1 (stereo unspecified)	-3.8%	4.3	/	0.5%	/	/	/
CCOC(=O)N1C(=O)NC(=O)C1c1ccc(OC)cc1 (stereo unspecified)	-1.0%	-2.7	-14.1%	-2.2%	-2.7%	/	/
CCCCS(=O)(=O)N1CCCC(C(=O)Nc2ccc3c(c2)CCC3)C1 (stereo unspecified)	-1.2%	1.6	5.0%[15.4 µM]	6.8%	11.9%	/	1.0%
CCNC(=S)N(CCc1c(C)[nH]c2ccc(C)cc12)Cc1cc(OC)c(OC)c(OC)c1	-4.3%	-5.3	18.4%	1.6%	-17.8%	0.0	0.0%
Cc1ccc(C(=O)CSc2nnc(C3CC3)n2C2CC2)s1	-0.3%	-3.6	-24.0%	0.3%	0.1%	/	/
Cc1nnc(NC(=O)CC(NC(=O)C(F)(F)F)c2ccccc2)s1 (stereo unspecified)	/	3.5	-10.3%[15.4 µM]	-1.2%	2.4%	2.2	-25.5%
CC(C)C[C@H](NC(=O)[C@@H]1Cc2c([nH]c3ccccc23)C2c3ccccc3C(=O)N21)C(=O)N1CCC[C@@H]1C(=O)O (stereo partly specified)	-17.4%	-4.7	/	0.1%	-2.8%	1.4	-5.6%
O=c1nc(SCc2ccc(Cl)cc2)nc(-c2ccccc2)[nH]1	1.1%	-13.5	1.5%[15.4 µM]	1.9%	-5.8%	1.4	?
CCCCOC(=O)Nc1sc2c(c1C(=O)OC)CCC2	-8.1%	1.2	?	-1.5%[38.3 µM]	-7.2%	1.4	50.1µM*
COCCN(C(=O)CCC(=O)Nc1ccccn1)C(C(=O)NCCC(C)C)c1ccc(F)cc1 (stereo unspecified)	/	7.9	-27.1%	0.5%	-0.7%	0.3	-0.4%
CC(/C=N/NC(=O)c1ccccc1F)=C\c1ccccc1	-1.9%	-1.9	8.2%	1.0%	-9.7%	7.6	12.9%
c1ccc2c(c1)CCCN2Cc1nnnn1C1CCCC1	-0.4%	-1.9	-3.4%	-1.7%	-25.9%	-3.1	12.8%
N#CC(C#N)C(c1ccsc1)c1c(-c2ccccc2)[nH][nH]c1=O (stereo unspecified)	0.1%	-0.8	19.1%	-0.6%	-4.3%	0.1	9.7%
COc1ccc(OC)c(NC(=O)[C@H]2CC=CC[C@H]2C(=O)O)c1	-0.4%	-0.8	15.0%	-3.4%	-8.8%	5.0	7.1%
COc1ccc(Cl)cc1NC(=S)NC1CCCC1	-0.9%	-3.7	7.0%	2.7%	-8.2%	0.9	2.1%
COc1ccc(Nc2nc(S(=O)(=O)c3ccc(C)cc3)c(Cl)s2)cc1	/	5.1	8.0%	26.7%	-15.7%	-5.2	7.4%
CN(CC(=O)Nc1ccc(Cl)c(C(F)(F)F)c1)Cc1cc(=O)n2ccsc2n1	/	-4.2	1.4%[15.4 µM]	-0.5%	-39.4%	-3.8	10.9%

(next part)
SMILES	ClpP mod	D2 agonist	gsp agonist	PINK1 expr mod	gsp antag	Menin-MLL FL inh	Sfp PPTase inh
CC(NCC1COc2ccccc2O1)C1COc2ccccc2O1 (stereo unspecified)	/	-1.0	-13.1%[15.4 µM]	-1.0%	3.0%	-1.5	?
NC(=NC1CCCCC1)NS(=O)(=O)c1ccccc1	-0.1%	-4.3	-5.7%[15.4 µM]	0.7%	8.5%	-0.5	5.9%
CSCCC(NC(=O)c1ccc([N+](=O)[O-])cc1Cl)C(=O)OCC(=O)NCCCc1ccccc1 (stereo unspecified)	2.5%	4.4	17.3%	6.3%	-21.5%	2.2	0.0%
CSCCC(NC(=O)c1ccc([N+](=O)[O-])cc1Cl)C(=O)OCC(=O)NCC(F)(F)F (stereo unspecified)	1.2%	-5.0	11.3%[15.4 µM]	-1.0%	-7.8%	7.8	-2.3%
CCCCNC(=O)c1ccc(-n2c(=S)[nH]c3ccccc3c2=O)cc1	0.2%	2.5	2.6%[15.4 µM]	1.3%	3.7%	2.6	12.4%
Cc1ccccc1CN1CCCC(C(=O)N2CCCCC2)C1 (stereo unspecified)	-3.9%	-4.1	?	1.4%	3.3%	3.9	-25.9%
O=C1CSC(c2ccccc2F)N1c1ccccc1F (stereo unspecified)	1.8%	0.8	?	0.3%	8.4%	5.2	24.0%
CCCCC(CC)CNC(=O)CN(C)S(=O)(=O)c1cccc2nsnc12 (stereo unspecified)	0.2%	-4.4	-15.9%	-1.5%	-0.1%	2.3	-12.5%
CCOC(=O)C(NCCc1ccccc1F)(NC(C)=O)C(F)(F)F (stereo unspecified)	-5.1%	2.5	-36.2%[inhibitor]	0.9%	12.7%	2.4	7.7%
CC1CCN(c2cc(N(C)CCO)c([N+](=O)[O-])c3nonc23)CC1	1.3%	-3.0	-4.2%	-0.2%	-9.2%	5.7	4.2%
CCn1c(SCC(=O)NC(C)(C)C)nc(O)cc1=O	0.9%	0.0	-0.1%	-0.5%	-11.2%	2.3	-4.7%
Cc1noc(C)c1COc1ccc(CC(=O)NCc2ccccc2)cc1	-5.5%	5.2	-33.0%	4.7%	-13.7%	-4.1	0.5%
COc1cccc(Nc2n[nH]c(=S)s2)c1	-13.6%	-1.4	?	1.1%	-18.0%	4.2	50.1µM*
CCOC(=O)c1c(C)[nH]c(C(=O)OCC(=O)N(CC)c2c(N)n(Cc3ccccc3)c(=O)[nH]c2=O)c1C	-2.6%	-1.2	24.8%	0.3%	5.3%	/	/
O=C(CN1C(=O)c2ccccc2S1(=O)=O)N1CCN(Cc2ccc3c(c2)OCO3)CC1	-1.7%	-3.2	-0.3%	1.2%	-10.8%	2.5	4.2%
COCCCN1C(=O)C(=O)/C(=C(/O)c2ccc(S(=O)(=O)N3CCCCC3)cc2)C1c1ccc(OC)cc1 (stereo unspecified)	-3.4%	-3.6	2.1%	0.1%	0.0%	0.0	22.1%
COc1ccc(N2CCN(C(CNC(=O)c3cccc(Cl)c3)c3cccnc3)CC2)cc1 (stereo unspecified)	-2.9%	-2.7	2.1%	-0.7%	7.2%	-2.3	23.0%
Cc1cc2occ(CC(=O)NC3(C)CCS(=O)(=O)C3)c2cc1C (stereo unspecified)	-1.1%	-1.1	?	0.5%	11.7%	-0.5	15.7%
CCOc1ccc(C2NC(=O)C(C#N)=C(S)N2c2cccc(C)c2)cc1OC (stereo unspecified)	-2.7%	-4.0	11.3%	1.1%	1.5%	-7.8	?
C=CCOc1ccc(C2OC34CCCCC3C(C#N)(C#N)C2(C#N)C(=N)O4)cc1 (stereo unspecified)	22.4µM*	-0.6	?	-0.2%	17.9%	?	-4.8%
CCOCCn1c(CN2CCN(C(=O)c3ccco3)CC2)nc2c1c(=O)n(C)c(=O)n2C	-4.6%	-7.4	?	2.8%	2.6%	-3.6	-4.0%
COc1cc(C(=O)NCC(C)C)cc(OC)c1OC	-4.2%	-0.5	2.8%	-4.8%	7.7%	0.5	16.1%
NC(=O)c1cc([N+](=O)[O-])ccc1NCc1ccc(C(=O)O)cc1	-0.2%	-3.0	/	0.1%	18.5%	/	/
Cc1nn(Cc2ccccc2)c(Cl)c1C(=O)NCCc1ccc(Cl)cc1	-1.0%	-3.4	-5.7%	8.7%	-18.5%	3.7	1.3%
Cc1nccn1CC(=O)N/N=C/c1c[nH]c2ccccc12	/	-2.6	12.3%[15.4 µM]	2.1%	7.8%	18.7	3.6%

Later entries.
SMILES	ClpP mod	D2 agonist	gsp agonist	PINK1 expr mod	gsp antag	Menin-MLL FL inh	Sfp PPTase inh
O=C(CO/N=C/c1ccccc1OC(F)F)N1CCc2ccccc21	-0.9%	-1.5	?	2.1%	4.8%	2.5	17.1%
Cc1c(C(=O)O)cc(C(C)(C)C)n1CCSCCO	/	1.8	-1.1%[15.4 µM]	0.5%	-9.4%	2.4	25.3%
Cc1ccc(F)cc1NC(=O)C1CC(=O)N(CCc2ccccc2)C1 (stereo unspecified)	-3.6%	-5.0	10.2%	-0.5%	5.1%	4.2	-12.5%
Cc1cc(C)nc(NS(=O)(=O)c2ccc(NC(=O)Cc3ccccc3)cc2)n1	/	-3.3	5.9%[15.4 µM]	0.6%	-3.5%	-1.3	-0.1%
NS(=O)(=O)c1ccc(Cl)c(S(N)(=O)=O)c1	/	-4.2	14.4%[15.4 µM]	-1.2%	8.3%	0.5	3.0%
Cc1ccc(NC(=S)NNC(=O)c2nn(C)cc2Cl)cc1	1.1%	-6.3	5.5%	0.7%	-8.8%	-0.1	11.2%
Cc1cc(Cl)ccc1C(=O)C1CCCN(C(=O)CN2CCOC2=O)C1 (stereo unspecified)	1.0%	-2.0	-6.3%	-1.6%	15.5%	/	17.3%
COc1cc(/C=C/C(=O)OCC(=O)c2ccc(S(=O)(=O)N3CCCCC3)cc2)cc(OC)c1OC	-0.2%	-7.2	-0.6%	?	-14.6%	/	/
CCOc1ccccc1CNC(=O)CCCn1ccc2cc(S(=O)(=O)N3CCCC3)ccc21	-3.8%&-8.3%	-3.4	?	1.5%&1.0%	4.7%	/	-2.5%
Cc1ccn2cc(-c3cccc([N+](=O)[O-])c3)nc2c1	/	-0.8	-2.9%[15.4 µM]	-1.9%	9.6%	-0.8	-5.2%
C/C(=C\C=C\c1ccccc1)C(=O)c1c(C)cc(C)[nH]c1=O	-2.5%	-4.1	?	-2.5%	-11.5%	4.5	8.0%

Compound activity from PubChem BioAssay.
